p53null 32C tox – qHTS Screen for Compounds that Selectively Target Cancer Cells with p53 Mutations: Cytotoxicity of p53 Null Cells at the Permissive Temperature. H1299-neo p53 null cells, ATP luminescence, 24 h, 32C. Potency, µM (top dose mostly 46.1 µM), for the others: at the highest dose activity change, negative = cytotoxicity, most hits filed as cytotoxic. 55,000 tested, 0.62% active. AID 903, 2007;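 note: potency is the fitted concentration of half-maximal effect; 0% = DMSO only and -100% = full killing by 100 µM tamoxifen; nearly all actives have a fitted effect of over 55% in size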
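Cells lacking p53 (H1299-neo) are plated at 600 per well and allowed to settle overnight at 37C. Test compounds (up to 46 uM) are added and held 24 hours at 32C, then ATP is quantified by luminescence.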
GALK inhibitor – qHTS Assay for Inhibitors of Human Galactokinase (GALK): NCGC Sytravon Library Screen; P51570; Potency, µM (series often up to 57.5 µM), inactives show top-dose activity, negative = inhibition, actives largely listed as inhibitors; recombinant GALK, Kinase-Glo ATP luminescence, 1 h; 44,000 tested, under 10 active;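 note: plate controls were full GALK reaction for no effect and reaction lacking GALK for full effect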
Target sequence (P51570 whole entry, looked up): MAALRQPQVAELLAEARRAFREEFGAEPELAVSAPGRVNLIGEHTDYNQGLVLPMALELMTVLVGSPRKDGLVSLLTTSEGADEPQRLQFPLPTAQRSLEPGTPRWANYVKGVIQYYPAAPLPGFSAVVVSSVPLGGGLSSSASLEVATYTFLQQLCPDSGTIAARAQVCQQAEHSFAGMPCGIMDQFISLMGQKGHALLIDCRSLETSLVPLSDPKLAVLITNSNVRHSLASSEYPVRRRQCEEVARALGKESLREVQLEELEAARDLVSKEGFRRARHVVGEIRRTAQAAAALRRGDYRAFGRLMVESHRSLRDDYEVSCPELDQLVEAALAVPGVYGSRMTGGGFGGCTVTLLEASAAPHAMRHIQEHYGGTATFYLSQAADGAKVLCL
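Reactions with and without enzyme served as controls. GALK at 5 nM phosphorylates 100 uM galactose using 35 uM ATP (HEPES pH 8.0, Mg2+) for 1 h at RT, with luminescence read 10 min after adding Kinase-Glo Plus.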
B2AR arrestin ag – qHTS assay of beta-arrestin-biased ligands of beta2-adrenergic receptor: NCGC Sytravon Library Screen; 44,000 tested, under 10 active; HTLA Tango cells, beta-arrestin recruitment, luciferase luminescence, 18 h; AID 1347077, 2019; Beta-2 adrenergic receptor (Homo sapiens), P07550; Potency, µM (doses to about 46.1 µM), for the others: at the highest dose activation, hits mostly activators;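 note: potency is the fitted concentration of half-maximal effect; 0% = DMSO and full agonism = EC100 isoproterenol or metaproterenol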
Target sequence (P07550 whole entry, looked up): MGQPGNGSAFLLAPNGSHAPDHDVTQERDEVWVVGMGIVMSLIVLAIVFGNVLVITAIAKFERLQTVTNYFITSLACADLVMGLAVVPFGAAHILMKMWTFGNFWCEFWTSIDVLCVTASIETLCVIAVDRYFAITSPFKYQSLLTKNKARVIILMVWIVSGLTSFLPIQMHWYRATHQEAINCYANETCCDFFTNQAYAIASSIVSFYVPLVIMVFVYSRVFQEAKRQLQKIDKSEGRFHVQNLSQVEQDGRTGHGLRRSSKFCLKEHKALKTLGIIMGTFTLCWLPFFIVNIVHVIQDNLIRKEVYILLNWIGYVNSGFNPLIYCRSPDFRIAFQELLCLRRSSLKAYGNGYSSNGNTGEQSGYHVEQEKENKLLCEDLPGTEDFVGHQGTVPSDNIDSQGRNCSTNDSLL
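Tango cells (recombinant beta2-AR, beta-arrestin, tTA-driven luciferase), 1500/well in DMEM 1% FBS, treated 18 h at 37 °C with compounds up to 46 µM; luciferin mix added, luminescence read after 15 min; %activity curves fitted and curve-classed.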
p53null 39C kill – qHTS Screen for Compounds that Selectively Target Cancer Cells with p53 Mutations: Cytotoxicity of p53 Null Cells at the Nonpermissive Temperature; H1299 p53-null (neo) cells, 39C, ATPlite viability, 24 h; 55,000 tested, 0.97% active; AID 904, 2007; Potency, µM (titrated, usually from 46.1 µM), inactives show top-dose activity, negative = cell killing, actives largely listed as cytotoxic;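 note: potency is the fitted concentration of half-maximal effect; 0% = DMSO only and -100% = full killing by 100 µM tamoxifen; nearly all actives have a fitted effect of over 50% in size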
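Concentration-response (up to 46 uM) was run for 24 h at the nonpermissive 39C on H1299-p53A138V or H1299-neo cells. ATP content was measured with ATPlite luminescence. AC50 values were Hill-modeled after normalizing between DMSO and 100 uM tamoxifen killing.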
FH mod – Identification of activators of human fumarate hydratase by quantitative high-throughput screening; FH coupled MDH/diaphorase resazurin fluorescence, 15 min; Fumarate hydratase, mitochondrial (Homo sapiens), P07954; AID 1347055, 2019; 54,000 tested, 0.22% active; Potency, µM (top dose mostly 79.9 µM), for inactives: top-dose activity change, negative = inhibition, usual class: inhibitors; note: potency is the fitted concentration of half-maximal effect; % is set by controls: 0 for no effect and ±100 for the full control effect; the screen sought activators but most active calls are inhibition curves; nearly all actives have a fitted effect of over 45% in size
TSG101-PTAP inh – qHTS Validation Assay for Inhibitors of HIV-1 Budding by Blocking the Interaction of PTAP/TSG101: Sytravon Library Screen. Potency, µM (titrated, usually from 115 µM), for inactives: top-dose activity change, negative = inhibition, most hits filed as inhibitors. 44,000 tested, under 10 active. AID 1347069, 2019. Fluorescence polarization, FITC-PTAP peptide/Tsg101, 20 min. Tumor susceptibility gene 101 protein (Homo sapiens), Q99816; note: potency is the fitted concentration of half-maximal effect; 0% is about no effect
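Fluorescence polarization: Tsg101 binding domain (10 uM final) in 10 mM HEPES pH 7.5, 0.15 M NaCl, 0.01% Tween 20, 3 mM EDTA, 0.1 mM TCEP; compounds pinned; FITC-PTAP peptide 50 nM final; 20 min, r.t.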
The depositor's hits bear a star; ? = inconclusive; / = no result given; [ ] = dose if it differs, or a comment. Calls come from the whole dose curve; as a rule, active = well fitted curve in the direction sought with a large enough effect; inconclusive = small, poorly fitted or top-dose-only effect, or another doubt; inactive = no such curve, though single readings can be large; an effect the other way counts as inactive or inconclusive. These rows are one share of the data (hit frequency here may not be typical).

SMILES	p53null 32C tox	GALK inhibitor	B2AR arrestin ag	p53null 39C kill	FH mod	TSG101-PTAP inh
COc1c(C)cc(NS(=O)(=O)c2ccc3c(c2)OCCO3)cc1C	14.5%	-1.8%	-1.8%	4.9%	-13.1%	-10.3%
CC1=C(C(=O)Nc2cccnc2)C(c2cccc(F)c2)n2nc(SCc3ccccc3)nc2N1 (centres undefined)	-1.6%	4.7%	-1.7%	?	-1.3%	-1.4%
CCC(C(=O)Nc1ccc(C)c(Cl)c1)n1c(=O)c(-c2ccccc2NC(C)=O)nc2ccccc21 (centres undefined)	-5.8%	-2.5%	0.1%	-8.2%	-28.0%	-3.4%
COc1ccc(-c2ccc3c(N)c(C(=O)NCc4ccc(Cl)cc4)sc3n2)cc1	19.8%	3.4%	0.1%	20.6%	-16.8%	-2.9%
CNC(=O)COC(=O)N1CCC(CCc2ccc(Cl)cc2)CC1	/	/	/	/	4.3%	/
COc1ccc(S(=O)(=O)NCCc2sc(-c3ccccc3)nc2C)cc1F	-3.8%	1.8%	0.1%	-7.9%	-16.1%	-4.7%
Fc1ccc(-c2noc3ncnc(NC4CCCCC4)c23)cc1	8.0%	1.7%	-0.7%	-6.4%	-11.7%	0.5%
Cc1cc(NC(=O)N2CCC(CN3CCCCCC3)CC2)ccc1Br	-0.4%	3.4%	-1.0%	-9.2%	-4.6%	4.2%
O=S(=O)(Nc1ccc(C(F)(F)F)cc1)c1ccc2c(c1)OCCO2	11.8%	2.9%	0.5%	6.0%	-8.7%	-7.5%
Cc1ccc(Cl)cc1NC(=O)Nc1cn(CC(C)C)c(=O)c2ccccc12	-3.0%	-7.6%	-1.2%	-10.5%	?	-2.3%
CCC(Cn1nnc2ccccc2c1=O)NC(=O)Nc1cc(C)cc(C)c1 (centres undefined)	-1.2%	1.6%	0.3%	-7.3%	-8.6%	0.2%
CCc1ccccc1N1C(=O)N(CC(=O)c2ccc(OC)cc2)c2ccccc2S1(=O)=O	-2.8%	-0.6%	0.0%	21.3%	-4.8%	-0.4%
N#Cc1c(C(F)(F)F)cc(-c2cccs2)nc1SCC(=O)Nc1ccccc1F	3.2%	-3.0%	0.1%	-5.0%	0.4%	1.1%
Cc1ccc2c(c1)C(=O)[C@]1(O)CCN(c3ccccc3)C1=N2	/	/	/	/	5.2%	/
CC1CCN(c2cc(NC(=O)c3ccccc3)ncn2)CC1	/	/	/	/	-0.8%	/
Cc1cc(C(=O)NCc2ccccc2Cl)c2c(C)nn(-c3cccc(F)c3)c2n1	0.7%	-2.8%	-0.1%	-12.4%	5.0%	-3.2%
CC(C)CCNc1nc(Nc2ccccc2)c2cnn(C)c2n1	-4.1%	-1.6%	-0.1%	-26.7%	?	-10.6%
O=C1CS(=O)(=O)C2(C(=O)N(Cc3ccccc3)c3ccccc32)N1c1ccccc1 (centres undefined)	-1.8%	-0.3%	1.4%	2.4%	-25.1%	5.6%
Cc1oc(-c2ccccc2Cl)nc1CS(=O)(=O)CC(=O)NC(C)CCc1ccccc1 (centres undefined)	34.8%[activator]	-2.5%	1.1%	44.1%[activator]	?	-3.9%
Cc1cc2c(cc1S(=O)(=O)N(CCN(C)C)Cc1ccco1)OCC(=O)N2	-4.8%	1.8%	-0.5%	10.0%	-0.1%	-0.7%
CCc1cc2c(cc3c(=O)n(CC(=O)NCCc4ccc(OC)c(OC)c4)ncn32)s1	3.6%	-0.6%	-1.4%	12.2%	1.1%	-4.6%
CCCCN1C(=O)C(O)(CC(=O)c2ccc(CC)cc2)c2cc(Br)ccc21 (centres undefined)	64.5%[activator]	-0.4%	0.3%	?	?	0.9%
CC1CCN(CC2CCN(C(=O)NCc3ccc(F)cc3)CC2)CC1	6.6%	-1.2%	-1.1%	-15.2%	?	-1.7%
COc1ccc(CCNc2nc(-c3ccc(OC)c(OC)c3)cc(C(F)(F)F)n2)cc1OC	27.4%	5.3%	-0.1%	55.0%[activator]	?	0.4%
COc1cc(C2NC(=O)N(C)C3=C2C(=O)N(c2cccc(Cl)c2)C3)ccc1O (centres undefined)	18.4%	9.1%	-1.3%	-29.5%	5.7%	0.5%

Part of the list above in order of heavy-atom count, ascending:
SMILES	p53null 32C tox	GALK inhibitor	B2AR arrestin ag	p53null 39C kill	FH mod	TSG101-PTAP inh
CC(C)CCNc1nc(Nc2ccccc2)c2cnn(C)c2n1	-4.1%	-1.6%	-0.1%	-26.7%	?	-10.6%
O=S(=O)(Nc1ccc(C(F)(F)F)cc1)c1ccc2c(c1)OCCO2	11.8%	2.9%	0.5%	6.0%	-8.7%	-7.5%
CC1CCN(CC2CCN(C(=O)NCc3ccc(F)cc3)CC2)CC1	6.6%	-1.2%	-1.1%	-15.2%	?	-1.7%
Cc1cc2c(cc1S(=O)(=O)N(CCN(C)C)Cc1ccco1)OCC(=O)N2	-4.8%	1.8%	-0.5%	10.0%	-0.1%	-0.7%
COc1cc(C2NC(=O)N(C)C3=C2C(=O)N(c2cccc(Cl)c2)C3)ccc1O (centres undefined)	18.4%	9.1%	-1.3%	-29.5%	5.7%	0.5%
O=C1CS(=O)(=O)C2(C(=O)N(Cc3ccccc3)c3ccccc32)N1c1ccccc1 (centres undefined)	-1.8%	-0.3%	1.4%	2.4%	-25.1%	5.6%

Additional structures follow:
SMILES	p53null 32C tox	GALK inhibitor	B2AR arrestin ag	p53null 39C kill	FH mod	TSG101-PTAP inh
CCOC(=O)c1noc2ncnc(N3CCN(c4cccc(Cl)c4)CC3)c12	6.6%	4.3%	-0.6%	16.2%	-27.3%	-3.0%
CC1(C)N=C(c2ccc(F)cc2)C(=O)N1CC(=O)Nc1ccccc1Cl	1.9%	0.2%	-3.9%	-14.8%	-5.2%	-9.4%
Cc1c2cnn(CC(=O)NC(C)C)c(=O)c2c(C)n1Cc1cccc(Cl)c1	-0.4%	-12.0%	-1.2%	-18.2%	2.8%	-0.1%
CCOc1ccc2oc(=O)cc(CN3CCN(c4ccccc4)CC3)c2c1	4.9%	-2.6%	-1.2%	9.9%	-9.8%	-0.6%
CC1CCN(S(=O)(=O)c2ccc3[nH]ccc3c2)CC1	-2.6%	-0.2%	-0.8%	3.8%	-0.8%	-9.4%
Cc1ccc(NC(=O)CCSc2nc(-c3ccco3)cc(C(F)(F)F)n2)cc1F	-0.6%	1.8%	0.5%	?	?	0.7%
CC(=O)c1ccc(NC(=O)CCSc2nc(-c3ccco3)cc(C(F)(F)F)n2)cc1	-6.8%	5.2%	0.9%	?	-1.4%	0.1%
COc1ccc(OC)c(C2NC(=O)NC(C)=C2C(=O)Nc2cc(C)cc(C)c2)c1 (centres undefined)	6.0%	-0.8%	-0.4%	10.1%	-3.7%	1.2%
COC(=O)c1nc2n(n1)C(c1cc(OC)ccc1OC)C(C(=O)Nc1ccc(C)cc1C)=C(C)N2 (centres undefined)	3.1%	-1.0%	-1.6%	0.3%	2.1%	-1.9%
Cc1cc(C)n2c(Nc3ccc4c(c3)OCCO4)c(-c3ccccc3)nc2n1	-1.1%	-0.2%	1.2%	-11.5%	-16.8%	1.4%
CCc1nn2c(-c3ccco3)ccnc2c1-c1ccc(F)cc1	/	-1.4%	-0.4%	/	-2.4%	-5.5%
Cc1ccc(NC(=O)C(CC(C)C)N2Cc3ccccc3C2=O)cc1F (centres undefined)	-4.0%	-0.1%	1.8%	-5.0%	-5.6%	-6.2%
COc1ccc(Cl)cc1NC(=O)CSc1nc(-c2ccco2)cc(C(F)(F)F)n1	29.9%	6.9%	-0.5%	3.3%	-12.4%	-1.4%
CCc1ccc(/C=C(/C#N)c2nc(-c3ccc(C)cc3)cs2)cc1	3.9%	5.3%	0.8%	?	-5.1%	2.9%
COc1cc(NC(=O)C(CC(C)C)N2Cc3ccccc3C2=O)cc(OC)c1 (centres undefined)	-9.9%	-5.6%	1.5%	-8.6%	?	0.4%
Cc1cccc(Cc2c(C)nc3nc(SCC(=O)NC4CCCCC4)nn3c2C)c1	3.3%	-2.7%	1.1%	-5.8%	-15.2%	-10.4%
Cc1ccc(CCNC(=O)c2ccc(NC(=O)N3CCSc4ccccc43)cc2)cc1	-10.7%	6.8%	-2.1%	?	-4.8%	0.6%
CCCN(C(=O)Nc1cn(CC(C)C)c(=O)c2ccccc12)c1ccc(F)cc1	10.2%	0.1%	0.0%	7.4%	?	-7.4%
COc1cccc(Nc2sc(C(=O)c3ccc(Cl)cc3)c(N)c2C(=O)NCc2ccc(C)cc2)c1	-13.0%	-1.9%	0.5%	9.9%	7.1%	0.5%
COc1cccc(/C=C/c2nc(C#N)c(N3CCCCC3)o2)c1	-5.9%	-12.5%	-1.2%	-18.3%	-11.4%	2.7%
Cc1cc2c(cc1S(=O)(=O)N(CCN(C)C)Cc1ccccc1)OCC(=O)N2	1.4%	0.6%	-0.1%	1.2%	1.2%	-0.5%
COc1ccc(CCNc2nc3ccc(C)cc3n3cnnc23)cc1OC	-6.4%	-0.2%	-0.4%	-22.9%	-3.6%	-4.4%
Cc1ccc(-c2cc(NC(=O)C(C)Oc3ccc(C)c(C)c3)on2)cc1 (centres undefined)	30.3%[activator]	-0.9%	0.3%	22.8%	-41.0%	7.9%
CCNC(=O)c1cnc2c(-c3ccccc3)c(C)nn2c1C	-0.9%	-0.1%	3.7%	-2.2%	-13.2%	1.7%
Cc1oc2ncn(CC(C)C)c(=O)c2c1C(=O)N1CCN(c2ccccc2F)CC1	-4.6%	1.4%	2.1%	-12.1%	-11.5%	4.6%

(further entries)
SMILES	p53null 32C tox	GALK inhibitor	B2AR arrestin ag	p53null 39C kill	FH mod	TSG101-PTAP inh
COc1ccc(Cn2c(=O)c3oc4ccccc4c3n(CC(=O)Nc3ccc(F)cc3F)c2=O)cc1	-2.3%	0.4%	-0.5%	1.9%	-14.4%	11.2%
Cc1c(CNC(C)CCc2ccccc2)c(C(=O)O)c(C)n1Cc1ccc(F)cc1Cl (centres undefined)	1.9%	-1.0%	-2.2%	-11.5%	-14.1%	-3.9%
CN(Cc1ccccc1)S(=O)(=O)c1ccc(F)c(C(=O)Nc2cc(Cl)cc(Cl)c2)c1	-10.9%	3.5%	-1.1%	24.8%	-18.2%	-3.3%
CN(c1ncnc2onc(-c3cccc(Cl)c3)c12)C1CCCCC1	?	5.1%	0.3%	-4.8%	1.2%	0.8%
CN(Cc1ccccc1)S(=O)(=O)c1ccc(F)c(C(=O)Nc2cccc(Cl)c2Cl)c1	-8.5%	-0.7%	4.3%	-1.7%	-17.5%	0.5%
CC(C)(C)c1ccc(C(=O)Nc2ccc3c(c2)CCCN3C(=O)c2cccs2)cc1	?	-3.5%	0.1%	4.1%	-20.0%	-7.7%
COc1ccc(Cc2nc3ccc(C(=O)NCc4cc(Br)ccc4OC)cc3o2)cc1	6.5%	0.9%	-0.1%	4.0%	-22.3%	3.7%

Compound activity (PubChem BioAssay)
